Screening data from PubChem BioAssay.
Vaccinia Venus = vaccinia inhibition (Venus reporter); Vaccinia virus Venus reporter expression, fluorescence; Potency, µM (titrated, usually from 36.5 µM), without a hit: at the top dose activity change, negative = inhibition, actives largely listed as inhibitors; 330,000 tested, 0.46% active; AID 720580; active means well fitted inhibition curve with a large enough effect; inconclusive means small, poorly fitted or top-dose-only effect; inactive means no such curve, though single readings can be large or run the other way; tested in A549 cells; further: nearly all actives have a fitted effect of over 30% in size; inactives centre near -10
VACV mCherry inh = inhibitors of vaccinia virus infection (mCherry reporter signal); AID 720579; Potency, µM (series often up to 36.5 µM), for the others: at the top dose activity change, negative = inhibition, most hits filed as inhibitors; 310,000 tested, 0.63% active; Vaccinia virus mCherry reporter infection, fluorescence; about a quarter of the inactives have no number; active = well fitted inhibition curve with a large enough effect; inconclusive = small, poorly fitted or top-dose-only effect; inactive = no such curve, though single readings can be large or run the other way; tested in A549 cells; further: nearly all actives have a fitted effect of over 35% in size; inactives centre near -10
* = called active by the depositor; i = inactive; ? = inconclusive; / = no result given; [ ] = dose if it differs, or a comment. On the % scale 0 is the no-effect control and ±100 the full control effect; potency means the concentration at half of the fitted maximal effect.

smiles | Vaccinia Venus | VACV mCherry inh
O=C(c1ccc(N2CCOCC2)c([N+](=O)[O-])c1)N1CCN(c2ccccc2)CC1 | -18% | ?
OC(c1cccc(Cl)c1)(c1cccc(Cl)c1)C1CN2CCC1CC2 (centres undefined) | -28% | -3%
O=C(CNC(=O)c1ccc(Br)o1)NCc1ccc(F)cc1 | 0% | -11%
N#Cc1ccc(Nc2ccccc2)c(N)c1 | -10% | /
Cc1ccc2nc(Cl)cc(=O)n2c1 | -9% | -11%
COc1ccc(Cc2nnc(N/N=C/c3ccc(C)o3)[nH]c2=O)cc1 | 0% | -2%
CCc1cc(=O)oc2c(C)c(OC(C)C(=O)N3CCC[C@@H]3C(=O)O)ccc12 (some centres undefined) | -10% | 4%
CCOc1ccccc1NC(=O)c1cc2ccc3cccnc3c2[nH]1 | -11% | -3%
COC(=O)c1cc(CNC(=O)c2cccc(C)c2)cc(NC(=O)c2ccncc2)c1 | 2% | -8%
O=C(c1ccco1)N1CCN(C(=O)c2ccccc2OCc2ccccc2)CC1 | -16% | -2%
Cc1ccc(CNC(=O)CSCc2nc(-c3ccc(Cl)cc3)oc2C)cc1 | -23% | -13%
Cc1cccc(N2CCN(C(=O)CCn3c(=O)[nH]c4ccsc4c3=O)CC2C)c1 (centres undefined) | -6% | -27%
CNC(=O)/C(C#N)=C/c1cccc(Oc2ccccc2)c1 | -10% | -19%
COc1cccc(OC)c1Nc1nc(C)nc2c1nnn2Cc1ccccc1Cl | 6% | 1%
COc1ccccc1-c1ccc2c(c1)C(C)(Cc1ccc(Cl)c(Cl)c1)C(=O)N2 (centres undefined) | ? | -26%

Complete entries as entered above. Order of screens: Vaccinia Venus, VACV mCherry inh
COC(=O)c1cc(CNC(=O)c2cccc(C)c2)cc(NC(=O)c2ccncc2)c1 is listed with 2%, -8%
Cc1ccc(CNC(=O)CSCc2nc(-c3ccc(Cl)cc3)oc2C)cc1 is listed with -23%, -13%
CNC(=O)/C(C#N)=C/c1cccc(Oc2ccccc2)c1 is listed with -10%, -19%
COc1ccccc1-c1ccc2c(c1)C(C)(Cc1ccc(Cl)c(Cl)c1)C(=O)N2 (centres undefined) is listed with ?, -26%
N#Cc1ccc(Nc2ccccc2)c(N)c1 is listed with -10%, /

Continuation.
smiles | Vaccinia Venus | VACV mCherry inh
COC(=O)c1c(-c2ccccc2)noc1C | -2% | 7%
Cc1cc(C)nc(NC(=O)c2cccc([N+](=O)[O-])c2)c1 | -10% | -15%
CCOc1ccc(N2C(=O)C(=O)/C(=C(/O)c3ccccc3)C2c2ccccc2[N+](=O)[O-])cc1 (centres undefined) | -4% | -22%
Cc1cccc(C(=O)N2CCCC(N3CCN(c4ccccc4F)CC3)C2)n1 (centres undefined) | -7% | -14%
COc1cc(SC)ccc1C(=O)N(CC(=O)Nc1ccccc1Br)Cc1ccco1 | -7% | ?
CSc1nc2c(c(=O)[nH]1)C(c1ccc(Br)cc1)CC(=O)N2 (centres undefined) | 1% | -21%
Cc1ccc2scc(N3CCN(C)CC3)c(=O)c2c1 | -11% | -8%
COc1ccc(CN2CCC(c3nc4ccc(Cl)cc4[nH]3)CC2)cc1 | -21% | i
COc1ccc(N2CCN(C(=O)Cn3nnc(-c4ccc(OC)c(OC)c4)n3)CC2)cc1 | -15% | -17%
CC(=O)c1sc(NCc2ccc(C)cc2)nc1C | -26% | -15%
Cc1cccc2sc(N(CCCN(C)C)C(=O)c3sc4ccccc4c3Cl)nc12 | -16% | -9%
Cc1cc(C)cc(NC(=O)CN(C)S(=O)(=O)c2ccc3[nH]c4c(c3c2)CCCC4)c1 | -10% | -19%
CCCS(=O)(=O)c1cnc(C2COc3ccccc3O2)nc1N (centres undefined) | -24% | i
O=C(O/N=C\c1ccc(N2CCCCC2)c([N+](=O)[O-])c1)c1c(F)cccc1F | ? | /
CN1C(=O)c2ccc(NC(=O)C3CCCCC3)cc2C1=O | -20% | -17%
CCOC(=O)c1c(NC(=O)CNCC(O)CO)sc(C)c1C (centres undefined) | -5% | /
COc1ccc(OC)c(NC(=O)CN(c2ccc(C)cc2)S(=O)(=O)c2c(C)noc2C)c1 | -13% | -19%
CCC1(CC)NC(=O)N(CC(=O)OCC(=O)Nc2ccc(C(F)(F)F)cc2)C1=O | -3% | -14%
Cc1cccc(C(=O)Nc2nnc(SCC(=O)NCc3ccco3)s2)c1 | -13% | i
C=C(C)CNC(=S)NNC(=O)CCn1c2cc(Cl)ccc2c2ccc(Cl)cc21 | -21% | i
c1ccc(N2[C@@H]3c4ccccc4C[C@H]2c2ccccc23)cc1 | -1% | ?
CCc1ccccc1NC(=O)c1ccc2nc(CCc3ccccc3)oc2c1 | -5% | -10%
O=C(CSc1ncn[nH]1)Nc1ccc(S(=O)(=O)N2CCCC2)cc1 | ? | /
COc1ccc(OCc2cc(C(=O)N(C)CC3CCCCO3)no2)c(Cl)c1 (centres undefined) | -10% | -19%
CC(C)(CN1CCN(Cc2ccccc2)CC1)NS(=O)(=O)c1ccccc1 | -10% | 4%
Cc1ccc(-c2cc(C(=O)NCC3CCCO3)c3ccccc3n2)cc1C (centres undefined) | 2% | -7%
Nc1nonc1-n1nnc(C(=O)N/N=C/c2cccc(Cl)c2Cl)c1CN1CCCC1 | -3% | i
COc1ccc(/C=N/NC(=O)CSc2ccccn2)cc1OC | -10%[7.34 µM] | 1%[7.34 µM]
CN(C1CC(C)(C)N(O)C(C)(C)C1)S(=O)(=O)CC12CCC(CC1=O)C2(C)C (centres undefined) | -8% | -12%
CCN(CC)S(=O)(=O)c1cccc(C(=O)N/N=C2\CC(=O)CC(C)(C)C2)c1 | 3% | 3%

Reformatted with values under each structure: three of the compounds above
Value order – Vaccinia Venus, VACV mCherry inh
> COC(=O)c1cc(CNC(=O)c2cccc(C)c2)cc(NC(=O)c2ccncc2)c1
→ 2%, -8%
> O=C(c1ccco1)N1CCN(C(=O)c2ccccc2OCc2ccccc2)CC1
→ -16%, -2%
> Cc1ccc(CNC(=O)CSCc2nc(-c3ccc(Cl)cc3)oc2C)cc1
→ -23%, -13%

Later entries
smiles | Vaccinia Venus | VACV mCherry inh
CCN1C(=NCC(C)C)N[C@@H](CCc2ccccc2)[C@H](C(=O)NCC(C)C)[C@H]1C | -20% | -9%
CCOc1cccc(CNCCO)c1OCc1ccc(Cl)cc1Cl | ? | ?
CCC(CC)CN1CCC(CN2C(=S)NC[C@@H]2CC(C)C)CC1 | -3% | i
COc1ccc(NC(=O)Cn2c(=O)cc(C)c3c(C)nn(C)c32)cc1 | -20% | -10%
CCN1CCN(CC(=O)Nc2cc(S(=O)(=O)N3CCCCC3)ccc2Cl)CC1 | 3% | -8%
CCCCCCn1c(=O)c(C(=O)N/N=C/c2cccc(F)c2)c(O)c2ccccc21 | -11% | i
CCOC(=O)C1=CC(=O)CC(C)(C)O1 | -4% | -13%
Cc1cccc(NC(=O)C2CCCN2C(=O)Oc2ccccc2)c1C (centres undefined) | -22% | /
O=Cc1ccc(-c2ccc([N+](=O)[O-])cc2Cl)o1 | 4% | -20%
O=C(NCc1ccccc1)C1CCN(S(=O)(=O)c2ccc(Cl)cc2)CC1 | -10% | -2%
COc1ccc(-c2sc3ccc(OC)cc3c2-c2ccc(OC)c(F)c2)cc1 | -5% | i
Cc1ccc(CS(=O)(=O)CCC(=O)NCc2ccccc2Cl)cc1 | 12%[7.34 µM] | 6%[7.34 µM]
Cc1ccc(C(=O)N/C(=C/c2cccs2)C(=O)NCC2CCCO2)cc1 (centres undefined) | -9% | -1%
COc1cccc2nccc(/C=C/c3ccc(N(C)C)cc3)c12 | 44%[activator] | -19%
COCCn1c(Cc2ccccc2)nnc1SCC(=O)NC(C)(C)C | -1% | -11%
COc1ccc(NC(C)=O)cc1NC(C)C(=O)Nc1ccc(F)cc1 (centres undefined) | 4% | 0%
CN(C)C(=O)c1ccc(S(=O)(=O)NCc2ccc(Cl)cc2)s1 | -6% | -14%
COCCCN1C(=O)C(=O)/C(=C(/O)c2ccc(S(=O)(=O)N3CCOCC3)cc2)C1c1ccc(F)cc1 (centres undefined) | -16% | -22%
CCOc1ccc(/C=C/c2ccc3ccccc3n2)cc1OCC | -12% | 38%[activator]
O=C(c1csc(Nc2ccccc2Cl)n1)N1CCCC1 | -15% | -24%
CC(C)c1ccc(NS(=O)(=O)c2ccc3[nH]cc(C(=O)NC4CCCC4)c(=O)c3c2)cc1 | 2% | -6%
O=C(/C=C/c1ccccc1)c1ccc(O)cc1O | -6% | i
Cc1sc(NC(=S)NC(=O)C(C)(C)C)c(C(N)=O)c1C | -27% | ?
CCOc1ccc(-n2c(SCC(N)=O)nnc2-c2cccnc2)cc1 | -20% | i
Cc1cc(NC(=O)COc2cccc(C)c2C)no1 | -7% | -26%
O=C1CS/C(=N/N=C2CCCC2)N1 | 6% | i
CCCCNC(=O)/C=C/c1cccs1 | -7% | -1%
CCOc1ccccc1C(=O)N(Cc1cc(OC)c(OC)c(OC)c1)c1ccccn1 | 8% | -6%
O=C(c1ccc(Sc2cccc(Cl)c2)c([N+](=O)[O-])c1)N1CCN(c2ccccn2)CC1 | -10% | -15%
CCOc1cc(CNc2ccc(O)cc2)ccc1OCc1ccc(Cl)cc1Cl | -1% | i

An excerpt of these results, with each value named.
Cc1cccc(C(=O)N2CCCC(N3CCN(c4ccccc4F)CC3)C2)n1 (centres undefined)
  Vaccinia Venus: -7% | VACV mCherry inh: -14%
COc1cc(SC)ccc1C(=O)N(CC(=O)Nc1ccccc1Br)Cc1ccco1
  Vaccinia Venus: -7% | VACV mCherry inh: ?

The listing continues.
smiles | Vaccinia Venus | VACV mCherry inh
CCCCCCNCc1cccc(Br)c1 | -19% | -22%
O=C(O)c1cccc2c1C(=O)c1cc([N+](=O)[O-])cc([N+](=O)[O-])c1-2 | -12% | -9%
CCOC(=O)c1ccccc1NC(=O)Cn1cnc2c(cnn2-c2ccccc2)c1=O | -11% | -14%
CCCS(=O)(=O)NC(=O)C1(C)CCN(C(=O)Cc2cccc3ccccc23)C1 (centres undefined) | 3% | -4%
C=CC[C@H](CC(=O)NCCO)C(=O)N[C@H](COC(=O)[C@@H](CC=C)Cc1ccc(F)cc1)C(C)(C)C | -18% | i
O=C(CN1C(=O)C2(SCC(=O)N2c2ccc(F)c(F)c2)c2ccccc21)Nc1ccccc1F (centres undefined) | -2% | -3%
Nc1c(Sc2ccccc2)c(=O)[nH]c(=O)n1Cc1ccccc1 | -4% | -11%
Cc1c(Cl)c([N+](=O)[O-])nn1CC(=O)NC(C)C1CC2CCC1C2 (centres undefined) | -11% | /
COc1cc(Cn2ccnc2)c(OC)cc1Cn1ccnc1 | -3% | i
CCC(=O)c1ccc(OCC(=O)Nc2cccc(S(=O)(=O)N3CCCCCC3)c2)cc1 | -21% | i
CCCCCCNC(=O)O[C@H]1Cn2c(=O)n(CCCCCC)c(=O)n2[C@@H]2CN(S(=O)(=O)c3ccc(C)cc3)C[C@]12O | 16µM* | ?
Cc1ccc2c(c1)C(=O)CC(c1ccccc1)S2 (centres undefined) | -1% | i
COC(=O)c1cnc(Oc2c(Cl)cc(N)cc2Cl)cc1C(F)(F)F | -13% | -4%
Cc1cc2nc[nH]c2cc1[N+](=O)[O-] | 11% | -23%
COc1ccc(OC)c(-c2csc(NC(=O)C3=NNC(=O)CC3)n2)c1 | 2% | -7%
O=C1N/C(=N/S(=O)(=O)c2ccccc2)S/C1=C/c1cccnc1 | -12% | -5%
O=[N+]([O-])c1ccc2c(c1)C(=NO)c1cc(Cl)c(Cl)cc1-2 | -11% | i
CCCC(CCC(=O)OC)(C(=O)OCC)c1csc(N)n1 (centres undefined) | -10% | -14%
COc1ccc(CCNC(=O)C2CC(c3cccc([N+](=O)[O-])c3)=NO2)cc1 (centres undefined) | -8% | -27%
Cc1ccc(-n2c(SCC(=O)Nc3cc(C)on3)nc3c(c2=O)SC(C)C3)cc1 (centres undefined) | 0% | -10%
COc1ccc(-c2nnc(NC(=O)c3ccc(S(=O)(=O)N4CCc5ccccc5C4)cc3)o2)cc1 | -11% | -18%
CCOc1ccc(NC(=O)c2oc3ccccc3c2NC(=O)Cc2ccc(F)cc2)cc1 | -1% | -1%
CCCc1cnc2c(c1SCC(=O)Nc1ccccc1OCC)c(=O)n(C)c(=O)n2C | -8% | i
COc1ccc(NC(=O)CC2CC3CCC2C3)cc1S(=O)(=O)N1CCOCC1 (centres undefined) | -10% | i
Cc1ccc(NC(=O)N(CCCN2CCOCC2)Cc2cc3cc4c(cc3[nH]c2=O)OCO4)cc1 | -26% | ?
CC1=C(C(=O)N(C)C)CC(CC(=O)NCC2CCCCC2)C(=O)N1CCC1=CCCCC1 (centres undefined) | -24% | i
Cc1ccc(CN2CCNC(=O)C2CC(=O)N(C)C2CCCCC2)o1 (centres undefined) | -7% | -2%
[O-]C1=N/[N+](=C/c2ccc(Cl)cc2)CC1 | -7% | -3%
COc1ccccc1CNC(=O)CCc1c(C)c2cc3c(C)c(C)oc3cc2oc1=O | -23% | i
